High-throughput results (PubChem BioAssay)
HNF4A DNA FP: change in binding of human HNF4 alpha to DNA. P41235. HNF4a-FITC DNA binding, fluorescence polarization, 1 h. activity change, % at 10 µM. actives 0.3% (n = 360,000). AID 1224865; in the data active = activity change above about 30%, passing the limit was not always enough;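 note: controls were the assay level and a saturating level of protein; the project sought stronger binding though the title names inhibitors; some compounds called inactive have numbers as strong as hits; positive values seem to mean higher polarization but the record does not say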
Target sequence (P41235 whole entry, looked up): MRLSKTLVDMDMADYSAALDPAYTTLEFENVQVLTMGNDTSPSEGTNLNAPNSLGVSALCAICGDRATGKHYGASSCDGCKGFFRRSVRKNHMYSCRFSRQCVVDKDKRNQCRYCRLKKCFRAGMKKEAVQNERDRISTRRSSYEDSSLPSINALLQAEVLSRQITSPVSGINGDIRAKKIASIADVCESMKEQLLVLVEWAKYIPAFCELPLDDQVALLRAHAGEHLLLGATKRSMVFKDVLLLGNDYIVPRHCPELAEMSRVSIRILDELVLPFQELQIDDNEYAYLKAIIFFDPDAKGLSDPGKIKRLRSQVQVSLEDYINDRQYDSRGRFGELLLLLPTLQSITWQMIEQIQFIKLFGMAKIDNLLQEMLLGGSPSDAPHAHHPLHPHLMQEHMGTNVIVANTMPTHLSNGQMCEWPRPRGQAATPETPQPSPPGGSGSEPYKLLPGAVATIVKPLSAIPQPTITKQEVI
Ecoli rRNA inh: inhibits bacterial ribosomal RNA function over humanized ribosomes; GFP signal change (wild-type ribosome), % (concentration not given with the values); actives 1.6% (n = 350,000); AID 720706; E. coli WT GFP vs humanized-ribosome RFP mutants, fluorescence, 24 h; stronger effect = lower value; DMSO median 0, no signal -100;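 active = significant combined selectivity score with lowered wild-type GFP, culture density cut under 30%, mutant RFP and density less affected; inactive = any of these conditions unmet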; note: one replicate is shown; some compounds called inactive have numbers as strong as hits
AF4-AF9 inh: MLL-AF4/AF9 protein interaction inhibition. inhibition, % at 10 µM. actives 0.47% (n = 350,000). AID 651704. AlphaScreen, biotin-AF4 peptide binding to FLAG-AF9;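 active = every replicate reaching a set inhibition limit, whatever the replicate mean, cut at about 25% in these data; inconclusive = mean inhibition reaches that limit but some replicates miss it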;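 note: 0% = plate neutral control median and 100% = total signal loss; the record names both 10 and 1 µM as test concentration; the first replicate is given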
Ecoli growth: inhibitors of Escherichia coli growth; OD600, 23 h; stronger effect = lower value; OD600 absorbance (test concentration not listed); actives 0.21% (n = 330,000);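 active = OD600 absorbance below the run mean of sample wells minus 3.6 SD, in any replicate, cut at about 0.56 in these data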;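 note: stock transfer was 300 nL into about 60 µL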
Vif TR-FRET: HIV-1 Vif–A3G interaction blockers – biochemical, TR-FRET, GST-Vif 1-94, biotin-A3G peptide, dose response retest, primary screen (AID 1117319); TR-FRET GST-Vif / biotin-A3G peptide binding; higher % means a stronger effect; test concentration not given here; strong numbers were not always called active; one-dose inhibition, %; IC50 in µM for titrated hits; actives 0.57% (n = 260,000);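 active = above the screen mean plus three standard deviations and confirmed in dose response; inconclusive = results disagree or hit not tested in dose response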;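 note: Vif residues 1-94 fused to GST binding biotinylated APOBEC3G peptide 110-148; 0% = full assay without inhibitor and 100% = GST in place of GST-Vif; retest series ran down from 100 µM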
ALR inh: blocks human ALR sulfhydryl oxidase activity; purified ALR, DTT oxidation, H2O2 HRP-luminol luminescence; inhibition, % (test concentration not listed); actives 3.8% (n = 290,000);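 active = mean and each replicate at 75% or more; inconclusive = only one of the two met; inactive = neither met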;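 note: stock transfer was 7.5 nL into about 7.5 µL; 0% = neutral wells and 100% = wells with inactivated enzyme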
Target sequence (P55789 whole entry, looked up): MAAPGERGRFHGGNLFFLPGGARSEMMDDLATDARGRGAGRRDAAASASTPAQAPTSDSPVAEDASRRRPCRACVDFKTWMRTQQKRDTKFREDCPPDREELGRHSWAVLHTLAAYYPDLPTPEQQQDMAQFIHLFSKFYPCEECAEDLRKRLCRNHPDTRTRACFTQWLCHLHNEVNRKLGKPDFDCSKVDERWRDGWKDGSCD
FGF22 binding: FGF22 (human) thermal shift binding | Q9HCT0 | recombinant FGF22 thermal shift, SYPRO orange fluorescence; percent of sucrose octasulfate shift, DMSO zero | calls only at 9.99 µM | actives 1.5% (n = 340,000) | AID 651658;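 active = melting point raised past a set limit in the mean and every replicate; inconclusive = no clear call; three in four hits are not shown here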
Target sequence (Q9HCT0 whole entry, looked up): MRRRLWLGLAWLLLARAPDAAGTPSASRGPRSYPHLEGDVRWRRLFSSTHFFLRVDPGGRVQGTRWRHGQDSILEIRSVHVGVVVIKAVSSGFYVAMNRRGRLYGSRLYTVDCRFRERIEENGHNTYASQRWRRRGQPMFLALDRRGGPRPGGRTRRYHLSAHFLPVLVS
Ecoli rRNA inh OD600: recorded beside Ecoli rRNA inh, whose call it bears; OD600 change, %; measured here: OD600 growth;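 optical density of the mix in the first replicate; 0 = DMSO median and -100 = no signal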
Ecoli rRNA inh RFP: second read-out of Ecoli rRNA inh, no call of its own (marks repeat the call); RFP signal change, %; measured here: RFP humanized mutant strains;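 first replicate; 0 = DMSO median and -100 = no signal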
An asterisk follows results filed as active; i = inactive; ? = inconclusive; nt = not tested or not shown.

HNF4A DNA FP,Ecoli rRNA inh,Ecoli rRNA inh OD600,Ecoli rRNA inh RFP,AF4-AF9 inh,Ecoli growth,Vif TR-FRET,ALR inh,FGF22 binding,Molecule
6.8,6,6,-1.7,1.6,0.7,nt,0,nt,CN(C)C(CNC(=O)c1ccc(NC(=O)CC#N)cc1)c1ccccc1 (centres undefined)
2.6,nt,nt,nt,nt,0.79,8%,nt,nt,COC(=O)c1sccc1NC(=O)/C=C\c1ccc(Cl)cc1Cl
2.9,-57,-81,-30,15,0.67,-6%,-5,i,CCn1ccnc1CN(C)Cc1cn(-c2cccc(C)c2)nc1-c1cccc(F)c1
-13,-4,-3,-3.2,-29,0.65,30%,-1,i,O=C(CSc1nnc(-c2ccc(OC(F)F)cc2)o1)NC(=O)NCc1ccco1
-0.1,5,7,0.6,2.5,0.62,nt,nt,i,COc1ccc(N2CCN(CC(=O)Nc3nc(C)cs3)CC2)cc1
-0.3,nt,nt,nt,nt,0.69,nt,-2,nt,CCOc1ccc(NC(=S)N2CCC(N(C)CCN3CCOCC3)CC2)cc1
1.4,4,8,-1.2,-0.1,0.61,-7%,nt,i,CN1C(C(=O)NCC2CC2)CC2Cn3c(nc4cc5ccccc5cc43)C21 (centres undefined)
1.3,nt,nt,nt,nt,nt,4%,-31,nt,COc1ccc2nc(/C=N/NC(=O)[C@H](CCSC)NC(=O)OC(C)(C)C)ccc2c1
2.9,nt,nt,nt,nt,0.76,-5%,nt,nt,CCOc1cc(C(=O)OCC(=O)c2c(N)n(C)c(=O)n(C)c2=O)cc(OCC)c1OCC
-3.2,nt,nt,nt,nt,0.78,18%,1,nt,Clc1cccc(-c2cc3nc4c(c(N5CCN(c6cnccn6)CC5)n3n2)CCCC4)c1
2.1,nt,nt,nt,-2.5,nt,6%,nt,i,O=C(CN1CCN(S(=O)(=O)c2ccc3c(c2)OCCCO3)CC1)N1CCc2ccccc21
nt,1,-6,-0.3,-2.0,nt,nt,nt,i,C[C@@H]1CCCCO[C@H](CN(C)C(=O)Nc2ccc(F)cc2)[C@@H](C)CN([C@H](C)CO)C(=O)c2cc(NC(=O)Cc3ccccc3)ccc2O1
-2.5,0,-4,0.8,-25,0.7,nt,-2,i,O=C(NCCc1nc(-c2ccccc2Cl)no1)C1CCCCC1
-1.6,nt,nt,nt,nt,0.75,?,-19,nt,CCOc1ccc(-c2cc(CCCC(=O)Nc3cc(OC)ccc3OC)no2)cc1
1.6,11,6,3.1,-7.1,0.68,76%,8,i,Cc1cc(SCC(=O)NCCCN2CCCC2=O)nc2ccccc12
3.1,-4,7,4.1,-1.5,0.68,7%,-15,i,Cc1ccc(CNC(=O)c2ccccc2N(C)S(C)(=O)=O)cc1
3.7,-9,-7,-0.7,6.7,0.65,nt,-12,i,OCCN1CCN(c2ncnc3scc(-c4ccc(F)cc4)c23)CC1
1.6,-7,1,-1.8,0.8,0.64,0%,nt,i,COc1ccccc1C(=O)c1nc2ccccc2n1C
1.9,nt,nt,nt,4.0,0.67,nt,nt,i,COc1ccc(S(=O)(=O)N2CCOCC2)cc1NC(=O)c1sccc1C
0.7,-1,-9,0.0,-0.2,0.68,nt,-2,i,O=C(CCNC(=O)c1ccco1)Nc1cccc(C(F)(F)F)c1
nt,-6,-9,-1.6,-3.0,nt,nt,nt,i,O=C(C[C@@H]1C=C[C@@H](NC(=O)Cc2cccnc2)[C@@H](CO)O1)Nc1ccc(-c2ccccc2)cc1
-1.8,nt,nt,nt,nt,0.74,28%,14,nt,Nc1nonc1C(=O)NCCNC(=O)c1ccccc1F
1.6,-1,0,1.1,6.5,0.7,10%,-19,i,CC(NC(=O)CN1c2cccc3cccc(c23)S1(=O)=O)c1ccc(S(N)(=O)=O)cc1 (centres undefined)
-1.6,15,13,-2.4,12,0.69,0%,-7,nt,CCc1ccc(-n2c(=O)c3c(C)c(C)sc3n(CC(=O)NCC3CCCO3)c2=O)cc1 (centres undefined)
-2.1,11,-2,-1.5,-2.3,0.71,3%,nt,nt,CSc1nc2n(n1)C(c1cccs1)C1=C(CCCC1=O)N2 (centres undefined)
2.4,15,6,1.9,-0.8,nt,8%,-7,i,OCC[C@@H]1C[C@@H](O)[C@H](O)[C@]2(CCCCO2)O1
-3.6,0,4,-0.6,0.7,0.67,6%,-1,i,Cc1ccsc1C(=O)OCC(=O)NCc1ccco1
-1.9,-6,0,-2.5,-1.3,0.64,nt,-13,i,Cc1nc2cc(-c3ccc(Br)cc3)[nH]n2c(=O)c1Cl
8.2,nt,nt,nt,nt,nt,2%,0,nt,CC(/C=N\NC(=O)c1cc(C)oc1C)=C\c1ccccc1
2.4,nt,nt,nt,2.0,nt,nt,nt,i,COc1cc(C(O)c2nc(-c3cc4ccccc4o3)cs2)ccc1F (centres undefined)
-3.9,-1,-1,-16,-1.1,nt,nt,nt,i,CC(C)C[C@@H](COc1ccccc1)N1CCN(C)CCC1=O
-0.3,nt,nt,nt,nt,0.71,1%,32,nt,O=C(CN1C(=O)NC2(CCSC2)C1=O)N1CCN(c2ccc(F)cc2)CC1 (centres undefined)
nt,nt,nt,nt,nt,0.74,-10%,-10,nt,CCOCCCn1c(C)nc2c(c1=O)c1nc3ccccc3nc1n2-c1ccc2c(c1)OCCO2
-0.1,11,15,3.7,-2.4,nt,1%,nt,i,COc1ccc2c(c1)Cc1c-2cc(Br)c(N)c1Br
-3.4,-4,-4,0.1,-0.1,0.65,-2%,nt,i,CC(=O)c1c(C)[nH]c(C(=O)OCC(=O)NCc2ccc(Cl)cc2)c1C
0.9,10,7,1.7,-4.5,0.7,-2%,1,i,CCN(Cc1ccccc1)S(=O)(=O)c1cn(C)cn1
nt,3,0,-0.3,-1.5,nt,nt,nt,i,CCCNC(=O)N1[C@H](CO)[C@@H](c2ccccc2-c2ccccc2F)[C@@H]1C#N
-4.6,4,19,-1.6,-1.0,0.71,-7%,-3,i,CCOc1ccc(C(C(=O)NC2CCCCC2)N(C(=O)c2ccccn2)c2cccnc2)cc1 (centres undefined)
2.8,nt,nt,nt,nt,0.67,-7%,nt,nt,c1ccc2c(N3CCCCC3)nc(N3CCCC3)nc2c1
4.4,-23*,-3.4*,2.2*,0.4,nt,-1%,nt,i,CC(=O)Nc1cccc(OCc2ccc([N+](=O)[O-])cc2)c1
nt,-2,-7,0.9,-0.6,nt,nt,nt,i,C[C@@H]1CN([C@H](C)CO)C(=O)Cc2cc(NC(=O)CCC(F)(F)F)ccc2O[C@H]1CN(C)Cc1ccc(-c2ccccc2)cc1
2.4,13,7,1.6,-3.4,0.69,2%,-16,i,CC(C)c1cc(=O)n2[nH]c(N)nc2n1
-0.6,3,2,-0.3,-3.6,0.7,2%,-2,i,O=C(NCC(c1ccco1)N1CCCC1)c1cc(S(=O)(=O)N2CCOCC2)ccc1Cl (centres undefined)
-3.0,nt,nt,nt,nt,0.68,2%,-12,nt,COc1ccc(NC(=O)N2CCCc3ccccc32)cc1
-0.6,8,19,-4.6,3.3,0.7,7%,nt,i,O=C(Nc1ccccc1)c1ccc(Br)o1
3.7,nt,nt,nt,nt,0.69,28%,0,nt,COC(=O)c1ccc(NC(=O)CSc2n[nH]c(-c3ccncc3)n2)cc1
-0.3,-2,-3,-8.9,0.3,0.63,-4%,nt,i,COc1ccc(C(=Cc2ccccc2)C(=O)O)cc1
2.5,12,-2,-1.1,-1.0,0.71,20%,4,i,COc1ccc2c(c1)C(=O)CC(O)(C(F)F)O2 (centres undefined)
1.8,7,9,2.1,-3.3,0.67,nt,-2,i,O=C(CCCNC(=O)c1ccc(Cl)cc1)Nc1ccccc1F
nt,-11,0,4.5,0.8,nt,nt,nt,i,C[C@@H]1CCCCO[C@@H](CN(C)C(=O)c2ccccc2)[C@H](C)CN([C@@H](C)CO)C(=O)c2cc(NS(=O)(=O)c3cccs3)ccc2O1

(continued)
HNF4A DNA FP,Ecoli rRNA inh,Ecoli rRNA inh OD600,Ecoli rRNA inh RFP,AF4-AF9 inh,Ecoli growth,Vif TR-FRET,ALR inh,FGF22 binding,Molecule
3.8,nt,nt,nt,nt,0.75,16%,10,nt,Cc1cc2c(c(=O)n1Cc1cccnc1)C(c1cccs1)C(C#N)=C(N)O2 (centres undefined)
-4.0,-15,-22,-1.2,-4.0,0.7,-2%,2,i,Cc1ccsc1C(=O)NNC(=O)c1ccccc1F
3.5,-1,-3,3.1,5.2,nt,nt,nt,i,C=CCN=c1scc(-c2ccc3c(c2)NC(=O)CO3)n1/N=C(\C)c1ccccn1
-2.3,nt,nt,nt,nt,0.69,16%,-3,nt,O=C(CN1C(=O)C2C3CC(C(Br)C3Br)C2C1=O)N1CCOCC1 (centres undefined)
0.8,7,7,0.3,-3.8,0.7,-5%,2,i,CN(Cc1ccccc1)C(=O)COC(=O)CCC(=O)c1ccc(F)cc1
-2.5,0,2,1.9,nt,nt,2%,-14,i,CCCCCC(=O)N1CC2(CC(c3cccc(NC(=O)c4ccccc4)c3)=NO2)C[C@@H]1C(N)=O (some centres undefined)
-3.2,nt,nt,nt,nt,0.77,2%,1,nt,N#CCCN(Cc1cccnc1)C(=O)Nc1cccc(Cl)c1
-1.6,1,-1,-4.4,2.6,0.7,21%,-14,i,O=C(Oc1ccc(C(=S)N2CCOCC2)cc1)c1cc([N+](=O)[O-])cc([N+](=O)[O-])c1
0.9,-6,-11,0.0,3.2,0.64,7%,99*,i,CC(C(=O)Nc1ccc(S(N)(=O)=O)cc1)N1CCc2ccccc21 (centres undefined)
-2.8,6,4,1.6,1.7,0.66,-1%,-4,i,CCOC(=O)c1c(-c2ncc(C(F)(F)F)cc2Cl)noc1C
-12,16,0,0.0,-0.5,0.68,-5%,-97,i,COc1ccc(NC(=O)Cn2nc(C)c([N+](=O)[O-])c2C)cn1
-0.7,nt,nt,nt,nt,0.67,-10%,2,nt,Cc1ccsc1/C=C(\C#N)C(=O)NCc1cccnc1
3.0,0,3,-2.6,-16,0.66,nt,-2,i,COC(=O)Cn1c(O)c(N=NC(=O)CNC(=O)c2ccncc2)c2ccccc21
2.9,nt,nt,nt,nt,0.66,2%,-2,nt,CCCCn1c(N)c(N(CCC(C)C)C(=O)CSc2nnc(C)s2)c(=O)[nH]c1=O
1.2,5,0,0.1,0.9,0.73,nt,-5,i,COC(=O)c1ccccc1NC(=O)Nc1c(C)n(C)n(-c2ccccc2)c1=O
5.2,3,4,3.1,-1.1,nt,nt,-2,i,CCCOc1ccc(-c2c(C(=O)N/N=C/C3CC=CCC3)nnn2-c2nonc2N)cc1 (centres undefined)
-2.6,nt,nt,nt,nt,0.73,-4%,-6,nt,CC1(C)NC(=O)N(CCCOc2ccc(Br)cc2Cl)C1=O
1.4,nt,nt,nt,nt,0.73,8%,nt,nt,O=C(CCc1nc2ccccc2[nH]1)Nc1ccc2c(c1)OCO2
-2.3,-28,-16,-22,2.1,0.7,nt,100*,i,O=C(Nc1ccc(O)cc1)/C(=C\c1cccs1)NC(=O)c1ccccc1
-3.9,2,4,1.1,-1.9,0.66,-8%,6,i,Cc1cccn2c(=O)c3cc(C(=O)NC4CCCCC4)n(C)c3nc12
nt,0,-1,2.0,1.0,nt,nt,nt,i,C[C@H](CO)N1C[C@H](C)[C@H](CN(C)C(=O)c2ccccc2)OCCCC[C@H](C)Oc2ccc(NC(=O)Cc3ccccc3)cc2C1=O

Individual results from above:
Ecoli growth result of CCOC(=O)c1c(-c2ncc(C(F)(F)F)cc2Cl)noc1C is entered as 0.66
Ecoli rRNA inh RFP result of CCCCCC(=O)N1CC2(CC(c3cccc(NC(=O)c4ccccc4)c3)=NO2)C[C@@H]1C(N)=O (some centres undefined) is entered as 1.9

This is a subset. The share of hits here may be higher or lower than overall.
